Assay outcomes as filed in PubChem.
Ecoli growth: E. coli growth inhibition, primary screen, OD600. 330,000 compounds, 0.21% hits. OD600 absorbance (concentration not given with the values). Escherichia coli growth, 23 h; stronger effect = lower value;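 active = OD600 absorbance below the run mean of sample wells minus 3.6 SD, in any replicate, cut at about 0.56 in these data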;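 note: stock transfer was 300 nL into about 60 µL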
HNF4A DNA FP: change in binding of human HNF4A to DNA, primary screen, biochemical, fluorescence polarization, FITC-DNA; Hepatocyte nuclear factor 4-alpha (Homo sapiens), P41235; 1 h; activity change, % at 10 µM; 360,000 compounds, 0.3% hits; AID 1224865, 2016; in the data active = activity change above about 30%, passing the limit was not always enough;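 note: controls were the assay level and a saturating level of protein; the project sought stronger binding though the title names inhibitors; some compounds called inactive have numbers as strong as hits; positive values seem to mean higher polarization but the record does not say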
Target sequence (P41235 whole entry, looked up): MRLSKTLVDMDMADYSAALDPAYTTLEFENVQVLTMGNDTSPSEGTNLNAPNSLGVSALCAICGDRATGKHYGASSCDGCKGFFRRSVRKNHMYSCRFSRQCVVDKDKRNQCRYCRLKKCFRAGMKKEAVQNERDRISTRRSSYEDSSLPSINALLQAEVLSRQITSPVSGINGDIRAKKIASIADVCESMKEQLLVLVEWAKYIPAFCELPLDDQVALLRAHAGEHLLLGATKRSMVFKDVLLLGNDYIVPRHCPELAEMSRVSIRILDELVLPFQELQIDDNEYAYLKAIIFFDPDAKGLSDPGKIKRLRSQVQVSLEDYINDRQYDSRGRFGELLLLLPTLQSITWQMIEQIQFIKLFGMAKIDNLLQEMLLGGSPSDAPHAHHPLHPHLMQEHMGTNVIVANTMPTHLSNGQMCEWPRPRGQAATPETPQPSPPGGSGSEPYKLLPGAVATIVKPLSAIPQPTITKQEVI
FGF22 binding: binders of human FGF22 protein, primary screen, FGF22 synaptogenesis inhibitor project, biophysical, thermal shift, single point; Fibroblast growth factor 22 (Homo sapiens), Q9HCT0; recombinant FGF22 thermal shift, SYPRO orange fluorescence; percent of sucrose octasulfate shift, DMSO zero; calls only at 9.99 µM; 340,000 compounds, 1.5% hits;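 active = melting point raised past a set limit in the mean and every replicate; three in four hits are not shown here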
Target sequence (Q9HCT0 whole entry, looked up): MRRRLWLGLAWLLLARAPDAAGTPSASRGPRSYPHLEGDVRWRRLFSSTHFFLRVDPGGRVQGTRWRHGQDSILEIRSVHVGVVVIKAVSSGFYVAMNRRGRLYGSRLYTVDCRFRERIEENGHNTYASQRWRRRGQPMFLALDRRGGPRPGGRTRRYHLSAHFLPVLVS
B2AR ag: beta2AR agonists driving receptor internalization, primary screen, cell-based, FAP fluorogen, flow cytometry; Beta-2 adrenergic receptor (Homo sapiens), P07550; Am2.2-beta2AR cells; reference of the scale not given here; response, % (no concentration beside the values); 340,000 compounds, 0.43% hits;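 active = response above a set limit, near 3 SD of response in nonfluorescent compounds, cut at about 42% in these data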;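 note: stock transfer was 100 nL into about 11 µL; a reference agonist was the positive control; negative values mostly stem from fluorescent compounds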
Target sequence (P07550 whole entry, looked up): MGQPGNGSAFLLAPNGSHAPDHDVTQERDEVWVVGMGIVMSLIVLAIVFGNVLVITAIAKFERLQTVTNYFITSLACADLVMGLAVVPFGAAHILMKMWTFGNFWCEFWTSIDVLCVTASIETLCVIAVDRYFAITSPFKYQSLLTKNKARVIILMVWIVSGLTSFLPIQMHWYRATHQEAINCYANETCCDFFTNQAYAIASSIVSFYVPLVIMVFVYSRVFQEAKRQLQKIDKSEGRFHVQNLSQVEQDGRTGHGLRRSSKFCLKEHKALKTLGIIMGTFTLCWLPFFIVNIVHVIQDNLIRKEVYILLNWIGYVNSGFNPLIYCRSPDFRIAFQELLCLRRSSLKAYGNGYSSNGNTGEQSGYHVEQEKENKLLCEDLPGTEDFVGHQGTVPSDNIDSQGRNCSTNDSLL
rRNA inh HTS: reduced GFP signal of wild-type E. coli, primary screen, bacterial rRNA inhibitor project, GFP/RFP fluorescence, OD600, single point; E. coli WT GFP vs humanized-ribosome RFP mutants, 24 h; stronger effect = lower value; DMSO median 0, no signal -100; AID 720706, 2013; GFP signal change (wild-type ribosome), % (concentration not given with the values); 350,000 compounds, 1.6% hits;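 active = significant combined selectivity score with lowered wild-type GFP, culture density cut under 30%, mutant RFP and density less affected; inactive = any of these conditions unmet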; note: one replicate is shown; some compounds called inactive have numbers as strong as hits
ALR H2O2 inh: inhibitors of human ALR sulfhydryl oxidase, primary screen, biochemical, H2O2 detection, HRP-luminol luminescence, single point. FAD-linked sulfhydryl oxidase ALR (Homo sapiens), P55789. inhibition, % (test concentration not listed). purified ALR, DTT oxidation. 290,000 compounds, 3.8% hits;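 active = mean and each replicate at 75% or more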;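 note: stock transfer was 7.5 nL into about 7.5 µL; 0% = neutral wells and 100% = wells with inactivated enzyme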
UCH37 inh: inhibitors of human UCH37 deubiquitinase, primary screen, biochemical, Ub-AMC cleavage, fluorescence; Ubiquitin carboxyl-terminal hydrolase isozyme L5 (Homo sapiens), Q9Y5K5; purified proteasome/UCH37; inhibition, % (test concentration not listed); 330,000 compounds, 0.33% hits; AID 588478, 2011;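 active = mean of two replicates above 20%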;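 note: 0% = compound-free wells with enzyme and 100% = wells lacking proteasome; stock transfer was 100 nL into about 20 µL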
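Material: human UCH37 enzyme supplied as purified proteasome complex. Measure: % inhibition of Ub-AMC cleavage fluorescence. Medium: pH 7.4 Tris-HCl (50 mM) with ovalbumin, ATP-MgCl2, DTT. Times: 30 min preincubation with enzyme, 25 min cleavage at room temperature. Detection: AMC fluorescence intensity at 355/460 nm.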
rRNA inh HTS OD600: second read-out of rRNA inh HTS, no call of its own (marks repeat the call); OD600 change, %; measured here: OD600 growth;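 optical density of the mix in the first replicate; 0 = DMSO median and -100 = no signal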
rRNA inh HTS RFP: second read-out of rRNA inh HTS, no call of its own (marks repeat the call); RFP signal change, %; measured here: RFP humanized mutant strains;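 first replicate; 0 = DMSO median and -100 = no signal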
* = called active by the depositor; i = inactive; / = no result given; & = joins results of further samples. These rows are one share of the data, so the mix of outcomes need not match the whole.

Sequence of screens: Ecoli growth	HNF4A DNA FP	FGF22 binding	B2AR ag	rRNA inh HTS	rRNA inh HTS OD600	rRNA inh HTS RFP	ALR H2O2 inh	UCH37 inh
[1] COc1cccc(N(C(=O)Cn2nnc(-c3ccc(Cl)cc3)n2)C(C(=O)NCC2CCCO2)c2ccc(C)cc2)c1 (configuration not stated)
    0.68	-0.2	i	5	19	17	0.5	2	2.6
[2] C[C@H](CO)N1C[C@H](C)[C@@H](CN(C)C(=O)NC2CCCCC2)Oc2c(NC(=O)Nc3ccc4c(c3)OCO4)cccc2C1=O
    0.69	1.5	i	1	-6&10	-10&3	-0.9&-0.2	-3	8.5
[3] CCC1CCCCN1C(=O)CN1C(=O)CSC1=O (configuration not stated)
    0.72	-0.3	/	-2	/	/	/	-2	5.3
[4] Cc1ccc(NC(=O)Cn2nnc(-c3ccccc3NC(=O)c3cccs3)n2)cc1
    0.74	1.8	/	17	/	/	/	4	-20
[5] Cc1cccc(-c2cc3nc(-c4ccccc4)cc(N4CCC5(CC4)OCCO5)n3n2)c1
    0.71	0.2	/	2	/	/	/	-5	-4.7
[6] CC(C)C(=O)Nc1ccc(Sc2ccc(F)cc2)cc1
    0.68	2.1	/	-10	/	/	/	-4	4.3
[7] O=C(CNS(=O)(=O)c1ccccc1)OCC(=O)c1ccccc1Cl
    0.67	-3.8	i	-2	14	11	1.8	0	2.0
[8] Nc1nnc(C(F)(F)F)s1
    0.68	3.7	i	3	10	1	-2.7	20	-1.9
[9] Cc1noc(C)c1C(=O)NCCc1c(C)[nH]c2ccccc12
    0.68	1.6	i	1	-28	-39	-6.4	32	-1.9
[10] C[C@H](NC(N)=O)C(=O)N1CCN(S(=O)(=O)c2ccc3ccccc3c2)CC1
    0.68	-1.5	i	-9	5	20	0.8	0	5.4
[11] O=c1[nH]cc([N+](=O)[O-])cc1Br
    0.65	-5.7	/	-2	/	/	/	-2	11
[12] O=C1Nc2cc(Cl)ccc2C1(N1CCNCC1)C(F)(F)F (configuration not stated)
    0.67	-0.3	/	2	/	/	/	-5	-0.8
[13] COc1ccc(-c2csc(=Nc3ccccc3)n2CCO)cc1
    0.65	-2.5	i	-3	-23	-20	6.7	97*	4.9
[14] Cc1nn(-c2ccc(F)cc2)c2c1cc(C#N)c1nc3ccccc3n12
    0.69	0.0	/	0	/	/	/	0	-315
[15] O=C(COC(=O)/C=C/c1cn(-c2ccccc2)nc1-c1ccc2c(c1)OCCO2)NC1CCS(=O)(=O)C1 (configuration not stated)
    0.66	1.8	i	34	-2	-6	0.4	2	-100
[16] CN1CCN(C(=O)CCn2nc(-c3ccccc3)c3ccccc3c2=O)CC1
    0.68	0.1	/	-13	/	/	/	-2	-0.2
[17] Cc1ccc(NC(=O)CCCN2C(=O)c3cccc4cccc(c34)C2=O)cc1
    0.73	-2.0	i	-17	13	15	1.0	0	-41
[18] Oc1c(C(c2ccco2)N2CCC3(CC2)OCCO3)sc2ncnn12 (configuration not stated)
    0.78	3.2	i	10	-2	1	4.8	-33	3.4
[19] Cc1ccc(C#N)c(SCC(=O)Nc2nccs2)n1
    0.71	2.1	i	-11	7	7	1.2	3	-27
[20] N#C/C(=C/c1ccc2c(c1)OCO2)C(=O)Nc1ccc(O)cc1
    0.69	-0.7	i	-1	7	-6	-1.4	-292	1.7
[21] CCOc1cc(CNC(CC)CO)ccc1OCC(=O)Nc1cccc(C(F)(F)F)c1 (configuration not stated)
    0.69	1.8	i	-5	-8	-13	8.1	-2	4.8
[22] O=C1NC[C@H](CCCCN2CCN(CCC3CCCCC3)C(=O)C2=O)N(CCc2ccccc2)C1=O
    /	-1.3	i	/	-9	-9	5.7	/	/
[23] CC1=NN(c2cccc([N+](=O)[O-])c2)C(=O)C1
    0.7	1.0	i	-2	16	11	-2.4	/	2.5
[24] COc1ccc(-c2nc(N)ncc2-c2csc(C)n2)c(O)c1
    0.66	1.0	/	-4	/	/	/	-3	8.2
[25] CCOC(=O)c1c(-n2cccc2)sc2c1CCCC2=O
    0.67	1.7	i	-3	-24	-37	-18	/	5.0
[26] Cc1nc(SCC(=O)Nc2ccc(CN3CCCC3)cc2)c2c(C)c(C)sc2n1
    0.7	5.4	i	24	-5	-5	2.4	99*	3.9
[27] CS(=O)(=O)N1CCN(c2nc3ccc(Cl)cc3s2)CC1
    0.7	2.9	i	4	10	7	1.5	-4	2.6
[28] COC(=O)c1ccc(CSc2nnc(-c3ccccc3)n2C)o1
    /	0.2	i	6	14	12	1.2	10	/
[29] COC(=O)CC1COc2ccccc2N1C(=O)/C=C/c1ccccc1 (configuration not stated)
    0.69	-0.6	i	8	-7	-13	0.8	-3	5.0
[30] C/C(=N\NC(=O)c1nnn(-c2nonc2N)c1CSc1ccccc1)c1ccco1
    /	0.5	i	-9	0	1	1.6	-6	/
[31] CC(=O)Nc1ccc(C=NNC(=O)CCCC(=O)NN=Cc2ccc(NC(C)=O)cc2)cc1
    /	-1.9	i	-3	8	9	3.0	/	/
[32] COC(=O)c1ccc(C(=O)OC)c(NC(=O)CSc2nnc(-c3ccccc3Cl)o2)c1
    0.7	2.8	/	-5	/	/	/	-30	4.3
[33] Cc1ccccc1/C=C1\SC(=S)N(/N=C/c2cc([N+](=O)[O-])ccc2O)C1=O
    /	6.3	i	-2	-9	-7	4.9	-8	/
[34] CCOC(=O)C1CCCN(Cc2ccccc2C)C1 (configuration not stated)
    0.72	-6.1	/	1	/	/	/	-5	1.3
[35] CC(C)(C)NC(=O)C(CCc1ccccc1)n1c(=O)c(-c2ccccc2)nc2ccccc21 (configuration not stated)
    /	0.3	i	/	0	-23	27	/	/
[36] NC(=O)c1nsc(C(=O)N(CC(=O)NCc2ccc(F)cc2)Cc2ccco2)c1N
    0.76	1.0	/	15	/	/	/	-8	-32
[37] Cc1ccc(S(=O)(=O)NNC(=O)Cc2cccn2C)cc1
    0.65	-0.2	i	-1	14	12	2.6	17	1.4
[38] CC(=O)C[C@@H](O)CC(=O)[C@@H]1OC(=O)[C@@H](C)CCCCc2ccccc21
    0.7	0.0	i	0	/	/	/	/	-1.2
[39] COc1ccc(C(=O)N2CCCC(CNC(=O)c3ccc(F)cc3)C2)cc1OC (configuration not stated)
    /	-0.5	i	-8	11	11	0.4	-2	/
[40] COC(=O)c1c(O)cc(C(C)(C)C)n(-c2ccc(F)cc2)c1=O
    0.65	-0.2	/	-11	/	/	/	-4	-5.4
[41] Cc1cc(C(=O)N2CCN(c3ccc(F)cc3)CC2)on1
    0.76	3.0	i	5	4	9	-1.6	97*	6.3
[42] Cc1c(S(=O)(=O)N2CCN(c3cccc(Cl)c3)CC2)c(=O)n(C)c(=O)n1C
    0.71	-1.0	i	1	6	2	-0.5	0	3.9
[43] Cc1ccccc1S(=O)(=O)NC(=O)C1(C)CCN1C(=O)Cc1cccs1 (configuration not stated)
    /	2.8	i	/	4	11	-3.2	/	/
[44] CCCn1nc(C(=O)NNC(=O)c2cc(S(=O)(=O)NC)ccc2Br)c2ccccc2c1=O
    0.64	3.1	i	-2	-8	-5	-2.6	-25	0.6
[45] Cc1nn(CC(=O)Nc2ccc(C(C)C)cc2)c(C)c1[N+](=O)[O-]
    0.71	1.1	i	-5	6	2	1.3	-7	3.4

Looked up above.
compound 38 in B2AR ag reads 0
compound 41 in rRNA inh HTS RFP reads -1.6

The results go on:
Sequence of screens: Ecoli growth	HNF4A DNA FP	FGF22 binding	B2AR ag	rRNA inh HTS	rRNA inh HTS OD600	rRNA inh HTS RFP	ALR H2O2 inh	UCH37 inh
[46] C/C(=C(\C#N)C(=O)NCCN1CCOCC1)N(C)C
    0.69	-3.7	i	6	4	2	-3.6	-6	1.7
[47] CC1Cc2c([nH]c3ccccc23)C2c3ccccc3CN12 (configuration not stated)
    0.69	2.3	i	12	8	1	0.9	/	-18
[48] COc1cccc(NC(=S)N2CCn3c(nc4ccccc43)C2)c1
    0.63	-1.8	i	-18	-6	-17	0.7	1	6.7
[49] COc1ccc(NS(=O)(=O)c2cc3c(cc2C)N(C(C)=O)CCO3)cc1
    0.71	2.5	i	-7	3	-1	-0.7	-8	1.5
[50] COc1cc2ccc(-c3ccc4ccccc4n3)cc2cc1OC
    /	-0.3	i	/	-6	-1	0.2	/	/
[51] C=CCC(NCc1ccccc1)c1ccc(Cl)cc1 (configuration not stated)
    0.69	1.6	i	19	/	/	/	-8	4.2
[52] CN(CCc1ccccc1)C1CCCN(S(=O)(=O)c2cccc(F)c2)C1 (configuration not stated)
    0.7	-4.3	i	36	5	7	1.4	/	-2.9
[53] CCC(C(=O)NCc1ccc(F)cc1)n1nc(C)n2c(cc3occc32)c1=O (configuration not stated)
    0.67	1.4	i	-11	-4	1	-0.6	-3	1.7
[54] Cc1cccc(C(C)(C)C)c1OCCN1CCCC1
    0.68	0.7	i	10	9	1	-1.6	-8	0.9
[55] Cc1ccc(-n2nnnc2-c2cnc3ccc(Cl)cc3c2-c2ccccc2)cc1
    0.75	-4.6	/	5	/	/	/	-2	1.3
[56] c1ccc(C2=Nn3c(nnc3-c3cccs3)SC2)cc1
    0.67	-1.8	i	-14	5	1	-0.4	/	2.1
[57] O=C1c2ccccc2C(=O)c2[nH]cnc21
    /	-1.3	i	11	-2	-27	4.1	-52	/
[58] O=C(CCCOc1ccc(Cl)cc1Cl)N1CCCc2ccccc21
    0.73	2.3	/	-2	/	/	/	-16	0.4
[59] CCCCN(C)C(=O)c1[nH]c(C(F)(F)F)nc1-c1ccccc1
    /	-0.9	i	/	-3	-6	-1.3	/	/
[60] CCOC(=O)Cc1c[nH]c2ccccc12
    0.74	-1.7	/	-4	/	/	/	-14	1.7
[61] Cc1ccccc1CS(=O)(=O)CCC(=O)O
    0.64	1.0	i	3	12	8	-8.0	0	3.8
[62] NCCCC[C@H]1CNC(=S)N1CCCCC1CCCCC1
    /	0.3	i	-2	-12	-32	-3.1	-28	0.9
[63] Cc1cc(Oc2ccccc2)nc(SCC(=O)Nc2ccc(Cl)cc2Cl)n1
    0.69	0.4	/	-13	/	/	/	-5	1.1
[64] COc1ccc(CCN2CC(C(=O)NCc3cnn(C(C)C)c3)CCC2=O)cc1 (configuration not stated)
    0.72	0.5	i	-6	14	12	-0.9	-8	0.3
[65] Cc1ccc(NC(=O)COc2ccccc2CNC(C)(C)CC(C)(C)C)cc1
    0.64	1.5	/	19	-53	-74	-5.6	-3	0.9
[66] CCCCC(=O)Nc1cc(-c2nc3ncccc3o2)ccc1C
    0.68	0.2	i	-7	-6	-2	-1.6	1	-8.1
[67] O=C(Cn1c(=O)oc2ccccc21)NCCc1ccccc1
    0.67	-0.4	i	-4	5	4	-0.8	-4	0.6
[68] CCOC(=O)C1CCCN(C(=O)c2sc3nc(C)nc(N4CCOCC4)c3c2C)C1 (configuration not stated)
    0.7	0.5	/	5	/	/	/	-1	2.0
[69] O=C(/C=C\c1ccccc1)NCC(=O)N/N=C/c1ccc(O)cc1O
    /	2.1	/	5	/	/	/	-2	/
[70] Cc1cc(NC(=O)CCC(=O)N(C2CC2)C(C(=O)NC(C)(C)C)c2ccccc2Cl)no1 (configuration not stated)
    0.66	2.7	i	-11	2	-2	-1.3	-1	1.3
